Bioassay records (PubChem BioAssay)
GLA inh pH 4.5 – inhibitors of human alpha-galactosidase A at pH 4.5; activity change, negative = inhibition, % at 105 µM; 230,000 tested, under 10 active; purified enzyme, 4-MU-alpha-Gal fluorescence, pH 4.5; inconclusive = small, poorly fitted or top-dose-only inhibition, or a rising curve; inactive = flat fitted curve, though single readings scatter; no compound was filed as active;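 further: 0% = full activity with enzyme and -100% = basal without enzyme; dose as in the result columns while the protocol names 77 µM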
Target sequence (P06280 whole entry, looked up): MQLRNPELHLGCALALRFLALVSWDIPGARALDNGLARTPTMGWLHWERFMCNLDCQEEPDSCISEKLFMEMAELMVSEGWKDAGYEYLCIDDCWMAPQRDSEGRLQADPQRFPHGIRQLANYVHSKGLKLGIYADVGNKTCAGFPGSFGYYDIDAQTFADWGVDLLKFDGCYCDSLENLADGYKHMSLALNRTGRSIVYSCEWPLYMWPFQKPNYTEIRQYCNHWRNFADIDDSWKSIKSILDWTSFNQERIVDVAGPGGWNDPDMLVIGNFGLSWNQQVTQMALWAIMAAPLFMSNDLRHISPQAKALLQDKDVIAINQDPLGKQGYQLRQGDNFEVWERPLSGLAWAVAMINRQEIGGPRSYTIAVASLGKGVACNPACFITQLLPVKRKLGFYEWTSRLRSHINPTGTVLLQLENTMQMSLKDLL
Rango release inh – inhibitors of RanGTP-induced Rango-importin beta complex dissociation; Biochemical FRET Rango-importin beta, RanGTP-induced dissociation; Potency, µM (series often up to 46.1 µM), without a hit: top-dose activity change, negative = inhibition; hit rate 0.071% among 340,000; AID 540253; active means falling FRET ratio curve, often poorly fitted, with flat reads before Ran was added; inconclusive means other falling curves, or compound fluorescence or quenching; inactive means flat or rising ratio curve;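 further: potency means the concentration at half of the fitted maximal effect; % of control where 0% means no effect; nearly all actives have a fitted effect of over 45% in size; -100% = wells without RanGTP and RCC1; the record marks most hits as doubtful in a second field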
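FRET read at 45 min, room temperature: inhibitors block the CFP/YFP signal rise when RanGTP (0.6 uM Ran, 2 mM GTP, 0.2 uM RCC1) frees Rango (0.1 uM) from importin beta (0.25 uM). Pre-read after 5 min compound exposure flags interference.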
Rango-impB inh – prevents formation of the Rango-importin beta complex; Q14974; Rango CFP/YFP FRET sensor + importin beta, 45 min; Potency, µM (series often up to 92.2 µM), inactives show at the top dose inhibition of complex formation; hit rate 0.031% among 340,000; AID 540263; active = rising FRET ratio curve, often small or poorly fitted; inconclusive = mostly compound fluorescence or quenching in the first reads; inactive = flat curves in all reads;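 further: potency means the concentration at half of the fitted maximal effect; 0% = DMSO wells and 100% = buffer wells lacking importin beta; nearly all actives have a fitted effect of over 15% in size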
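FRET biosensor (snurportin 1 IBB flanked by EYFP and cerulean), 50 nM, with compound 5 min, then 0.125 microM importin beta in PBS, 1 mM DTT, 0.02% Tween-20, 0.1% BSA. CFP/YFP ratio read after 45 min at room temperature; pre-read flags interference.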
miR-21 reporter – miR-21 reporter, rising signal. HeLa miR-21 FLuc reporter, luciferase, 48 h. Potency, µM (highest dose often 38.3 µM), for inactives: top-dose reporter change, positive = more light. 340,000 tested, under 10 active; active = well fitted rising curve with a large enough effect; inconclusive = small, poorly fitted or top-dose-only effect; inactive = no such curve, though single readings can be large or run the other way;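 further: % of control where 0% means no effect; miR-21 action dims this reporter so a rising signal means less miR-21 action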
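Luminescence from a firefly luciferase reporter carrying a miR-21 binding site downstream, stably expressed under a CMV promoter in HeLa cells that make miR-21 endogenously, reports miRNA modulation after 48 h compound exposure up to approximately 40uM final.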
* = called active by the depositor; ? = inconclusive; · = no result given; & = joins results of further samples; [ ] = dose if it differs, or a comment.

SMILES	GLA inh pH 4.5	Rango release inh	Rango-impB inh	miR-21 reporter
CC(=O)c1c(C)n(C2CCCCC2)c2ccc(O)cc12	8	0%	-0.6%	24%
CC[C@]12CC[C@H](O)CC1=CCC1C2CC[C@]2(C)C(=O)CCC12 (stereo partly drawn)	·	0%	-0.7%	·
COc1ccc(N2C(=O)CC(N3CCC(n4c(=O)[nH]c5ccccc54)CC3)C2=O)cc1 (stereo not drawn)	0	8%	2.6%	-2%
O=C1CN=C(c2ccccc2)c2cc([N+](=O)[O-])ccc2N1	1	4%	0.2%	·
O=C(c1cccc(N2CCCC2=O)c1)N1CCC2(CC1)OCCO2	-4	-6%	-1.3%	0%
C#CC(CC)(CC)NC(=O)Nc1ccc(OCC)cc1	0	-5%	-0.9%	-20%
CCC1(NS(=O)(=O)c2ccc(N)cc2)C(=O)N(C)C(=O)N(C)C1=O	·	12%	2.5%	·
C[C@]12CC[C@H](O)CC1=CCC1C2CC[C@@]2(C)C1C[C@@H]1CC(=O)O[C@@H]12 (stereo partly drawn)	·	-11%	1.1%	·
O=Cc1c(C(=O)O)n(Cc2ccc(Cl)cc2)c2ccccc12	4	?	?	-3%
COC(=O)[C@@]1(Cc2ccc(F)cc2)[C@H]2c3cc(C(=O)N(C)C)[nH]c3C[C@H]2CN1C(=O)c1ccccc1	-10&-1	1%	-0.3%	-3%
O=c1[nH]c(=S)n(C2CC2)c(O)c1/C=N/N1CCOCC1	-3	5%	-0.1%	3%
COC(=O)Cn1cc(/C=C2\C(=O)NC(=O)N(c3ccc(OC)cc3)C2=O)c2ccccc21	·	-3%	-0.2%	0%
C=CCOC(=O)COc1cc(C)cc2oc(=O)c3c(c12)CCC3	6	-8%	-2.3%	7%
CC1=CC(=Cc2sc3ccccc3[n+]2C)C=C(C)O1	-14	-29%	?	?
Cc1ccc(-n2c(O)c(/C=C/C=Nc3ccccc3)c(=O)[nH]c2=O)cc1	-3	?	?	-2%
COc1cccc(N2CCN(Cc3cccc(Cl)c3)CC2)c1	2	5%	1.2%	-15%
Cn1cnc([N+](=O)[O-])c1Sc1ccc([N+](=O)[O-])cc1	4	-18%	-2.7%	13%
O=C(c1ccccc1)C1CCCN(Cc2nc(-c3cnccn3)no2)C1 (stereo not drawn)	8	9%	-1.7%	-7%
CCN1CCC(N(C)C2CCCCC2)CC1	·	6%	0.1%	-1%
CC1=CC(=O)C2=C(C)C[C@H](O)[C@@H]3[C@H](OC(=O)[C@H]3C)[C@@H]12	·	17%	1.9%	·
Cc1cccc(CN2CCCC(C(=O)c3ccc(C(F)(F)F)cc3)C2)n1 (stereo not drawn)	-1	-5%	-1.6%	-1%
CC(C)OCC(O)CN1CC2C[C@@H](C1)Cn1c2cccc1=O (stereo partly drawn)	·	0%	0.0%	2%
CCOP(=S)(OCC)C(O)CCCCCn1c(=O)c(F)cn(C2CCCO2)c1=O (stereo not drawn)	·	-11%	-3.3%	-1%
COc1cc(C)c(CNCCc2c[nH]c3ccccc23)cc1C	·	13%	5.8%	7%
O=[N+]([O-])c1cccc(C2N3CCCN23)c1 (stereo not drawn)	2	30%	-0.2%	1%
COC(=O)C1=C(c2ccc(F)cc2OCc2ccccc2)C[C@@H]2CC[C@H]1N2C(=O)NCCNC(C)=O	·	1%	6.2%	·
CCCc1nc2ccc(Br)cc2c(=O)n1-c1ccc([N+](=O)[O-])c(C(F)(F)F)c1	-5	-8%	-4.0%	?
O=C(CN1CCCC1)Nc1ccc(Cl)cc1C(=O)c1ccccc1	-8	1%	-0.5%	0%
CC(=O)OC1(Cc2ccccc2)CN2CCC1c1ccccc12 (stereo not drawn)	-6	8%	-1.9%	-1%
CCN(CC)P(=O)(/C=C(\Cl)c1ccccc1)/C=C(\Cl)c1ccccc1	4	-5%	1.1%	-1%

Just Rango release inh, for some of the entries so far:
Molecule	Rango release inh
O=C(c1ccccc1)C1CCCN(Cc2nc(-c3cnccn3)no2)C1 (stereo not drawn)	9%
CCN1CCC(N(C)C2CCCCC2)CC1	6%
CC1=CC(=O)C2=C(C)C[C@H](O)[C@@H]3[C@H](OC(=O)[C@H]3C)[C@@H]12	17%
Cc1cccc(CN2CCCC(C(=O)c3ccc(C(F)(F)F)cc3)C2)n1 (stereo not drawn)	-5%

Next part
SMILES	GLA inh pH 4.5	Rango release inh	Rango-impB inh	miR-21 reporter
Fc1ccc2c(c1)nnn2C1CCN(Cc2ccccc2)CC1	3	9%	-0.3%	-2%
N=C1C(c2ccccc2)=C(O)CN1Cc1ccco1	2	1%	-1.2%	-7%
CCCCCCCSc1cc(OC)c(CCN(C)C)cc1OC	1	11%	0.2%	?
Cc1[nH]c2c(Cl)cccc2c1CCN	2	1%	2.7%	2%
O=C(c1ccc(CNS(=O)(=O)c2ccccc2)cc1)N1CCC2(CC1)OCCO2	-13	-15%	4.0%	-50%
CCc1ccc(NP(=O)(Oc2ccccc2F)Oc2ccccc2F)cc1	-8	-7%	3.5%	9%
CN(C)/C=C/C(=O)C(Cl)(Cl)Cl	0	-7%	6.0%	0%
COC(=O)C1=C(c2c(C)noc2C)C[C@@H]2CC[C@H]1N2C(=O)NC1CCCCC1	·	-7%	-4.4%	·
CCN1C(=O)C(=C2C=C(C)OC(C)=C2)C(=O)N(CC)C1=S	0	-22%	-2.3%	0%
COc1ccc2c3c1OC1C(=O)CC[C@@]4(O)[C@@H](C2)N(CC2CC2)CC[C@]314 (stereo partly drawn)	·	11%	1.0%	·
CCOc1cc2c(cc1OCC)-n1cccc1C(c1cccc(F)c1)NC2 (stereo not drawn)	·	0%	0.2%	-2%
COc1cc(Br)c(CNCCc2ccc3c(c2)OCO3)cc1OC	·	15%	3.5%	-5%
Cc1ccccc1-n1c(O)c(C(c2ccncc2)c2c(O)n(-c3ccccc3C)c(=O)[nH]c2=O)c(=O)[nH]c1=O	1&7	11%&-11%	-0.5%&0.3%	0%&7%
CN1C[C@H]2CON(C)[C@H]2C[C@H]1c1cccc(Br)c1	·	-9%	-0.5%	·
Cc1ccc(N2C(=O)NC(=O)/C(=C/c3cnn(-c4ccc(C)cc4)c3)C2=O)cc1	-8	-6%	-1.2%	-7%
Clc1ccc(CSC(Cn2ccnc2)c2ccc(Cl)cc2Cl)cc1 (stereo not drawn)	3&-7	-19%	2.8%	?
CC(C)(C)N1C(=O)NC(=O)/C(=C\c2ccc3c(c2)CCN3CCCCl)C1=O	-2	24%	2.7%	5%
Cc1cc(C)c(Cn2c(C(=O)O)c(C=O)c3ccccc32)c(C)c1	3[21.1 µM]	?	?	0%
Cc1cccc(CCNCc2cc3cccc(C)c3[nH]c2=O)c1	·	1%	-0.5%	-3%
C[C@]12CC[C@H](O)C[C@H]1CC[C@@H]1[C@@H]2CC[C@]2(C)[C@@H](C3=CC(=O)OC3)CC[C@]12O	·	-4%	-2.5%	·
NC(=O)CN1CC(c2ccccc2)CC1=O (stereo not drawn)	-12	2%	?	-9%
Cc1ncc2n1-c1ccc(Cl)cc1C(c1ccccc1F)=NC2	·	-10%	2.9%	·
COC(=O)C1=C(c2ccc(F)cc2OCc2ccccc2)C[C@@H]2CC[C@H]1N2C(=O)NCc1ccc2[nH]ccc2c1	·	13%	-2.0%	·
Cc1nn(C2CCOC(C)(C)C2)c2c1C(c1ccc(OC(C)C)cc1)SCC(=O)N2 (stereo not drawn)	-14	-2%	-0.1%	-2%
O=C(NC(=O)c1c(F)cccc1F)Nc1cc(Cl)c(F)c(Cl)c1F	2	10%	3.0%	3%
CC(=O)C1C2c3ccccc3OC1(C)N=c1s/c(=C/c3cnn(C)c3)c(=O)n12 (stereo not drawn)	0	6%	-0.4%	-2%
O=P1(c2ccccc2)Nc2ccccc2N1c1ccccc1 (stereo not drawn)	·	-14%	-1.3%	·
COc1ccc(C(=O)CN2CCCCC2)cc1	-4	-13%	0.3%	-10%
N=C1c2ccccc2CN1NC(=O)c1ccc(Br)cc1	-9	2%	-1.6%	-5%
CC/C(=N\NC(N)=O)c1c(O)[nH]c(=O)[nH]c1=O	3	-2%	0.0%	-3%
Fc1ccccc1CCNCc1cccc2ccccc12	8	5%	1.2%	-26%
CCN1CCN(Cc2cc(Br)ccc2O)CC1	5	0%	4.6%	2%
CC(=NCc1ccco1)c1c(O)n(-c2ccccc2)c(=O)[nH]c1=O	9	-14%	-0.3%	-7%
CCC(=NCc1cccnc1)c1c(O)n(-c2ccccc2)c(=O)[nH]c1=O	9	3%	0.6%	2%
Nc1c(C(=O)OCC2CCCO2)c2nc3ccccc3nc2n1Cc1cccs1 (stereo not drawn)	-7	?	?	17%
C=CC[C@@H](C)CC(=O)C(CCCN=[N+]=[N-])SOOc1ccccc1 (stereo partly drawn)	·	0%	1.6%	·
C[N+]1(C)[C@@H]2CC[C@H]1CC(OC(=O)[C@@H](CO)c1ccccc1)C2 (stereo partly drawn)	2	-2%	-1.2%	0%
O=[N+]([O-])c1cc2c(cc1CNCCc1ccc3c(c1)OCO3)OCO2	2	11%	2.2%	-21%
C1=C(CCNCc2ccccc2)CCCC1	4	-1%	-4.0%	-3%
CCN(CC)c1ccc(CNCCc2ccccc2F)cc1	0	1%	1.0%	20%
O=C1NC(=O)N(Cc2ccc(F)cc2)C(=O)/C1=C\c1ccc(N2CCCC2)cc1	-7	12%	0.0%	1%
CCc1nc(N2CCNCC2)c(C#N)c2c1CSC(C)(C)C2	2	5%	0.3%	-3%
O=c1[nH]cc(COCC(F)(F)C(F)(F)C(F)(F)F)c(=O)[nH]1	-8	-3%	-1.5%	-3%
COc1ccc(CNCCc2c(C)[nH]c3ccc(OC(F)(F)F)cc23)c(OC)c1	·	-1%	2.3%	?
C=CCn1c(O)c(C=Nc2ccc(F)cc2)c(=O)[nH]c1=O	·	5%	10%	-4%
CCN(CC)CCNCc1nc2ccccc2c(=O)n1-c1ccc(F)cc1	-2	-9%	1.7%	-15%
NCCc1ccccc1	·	-2%	2.5%	·

Molecules shown so far containing a Cl atom (10):
SMILES	GLA inh pH 4.5	Rango release inh	Rango-impB inh	miR-21 reporter
O=Cc1c(C(=O)O)n(Cc2ccc(Cl)cc2)c2ccccc12	4	?	?	-3%
COc1cccc(N2CCN(Cc3cccc(Cl)c3)CC2)c1	2	5%	1.2%	-15%
O=C(CN1CCCC1)Nc1ccc(Cl)cc1C(=O)c1ccccc1	-8	1%	-0.5%	0%
CCN(CC)P(=O)(/C=C(\Cl)c1ccccc1)/C=C(\Cl)c1ccccc1	4	-5%	1.1%	-1%
Cc1[nH]c2c(Cl)cccc2c1CCN	2	1%	2.7%	2%
CN(C)/C=C/C(=O)C(Cl)(Cl)Cl	0	-7%	6.0%	0%
Clc1ccc(CSC(Cn2ccnc2)c2ccc(Cl)cc2Cl)cc1 (stereo not drawn)	3&-7	-19%	2.8%	?
CC(C)(C)N1C(=O)NC(=O)/C(=C\c2ccc3c(c2)CCN3CCCCl)C1=O	-2	24%	2.7%	5%
Cc1ncc2n1-c1ccc(Cl)cc1C(c1ccccc1F)=NC2	·	-10%	2.9%	·
O=C(NC(=O)c1c(F)cccc1F)Nc1cc(Cl)c(F)c(Cl)c1F	2	10%	3.0%	3%

A portion of the library (hit frequency here may not be typical).
